HPGD inh = qHTS Assay for Inhibitors of HPGD (15-Hydroxyprostaglandin Dehydrogenase) | 15-hydroxyprostaglandin dehydrogenase [NAD(+)] (Homo sapiens), P15428 | purified HPGD, NADH fluorescence kinetic, PGE2 substrate | Potency, µM, inactives show top-dose activity change, negative = inhibition, hits mostly inhibitors | actives 4.3% (n = 150,000); active = well fitted inhibition curve with a large enough effect (not every such curve was filed as active); inconclusive = small, poorly fitted or top-dose-only effect, or another doubt; inactive = no such curve, though single readings can be large or run the other way;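 note: top concentration of the series not given in the record; plate controls included wells without enzyme; inactives centre near -10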
Target sequence (P15428 whole entry, looked up): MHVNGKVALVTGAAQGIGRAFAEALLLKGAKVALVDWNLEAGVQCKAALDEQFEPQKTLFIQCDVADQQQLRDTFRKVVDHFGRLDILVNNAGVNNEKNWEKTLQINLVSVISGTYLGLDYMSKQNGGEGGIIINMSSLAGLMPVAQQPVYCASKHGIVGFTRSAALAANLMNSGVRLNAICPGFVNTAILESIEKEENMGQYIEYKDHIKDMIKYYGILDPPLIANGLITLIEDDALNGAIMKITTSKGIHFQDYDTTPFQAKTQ
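20 nM HPGD preincubated 15 min at room temperature with compound in 50 mM Tris-HCl pH 8, 0.01% Tween 20. Started with 1 mM NAD+ and 30 uM prostaglandin E2; NADH fluorescence (360/450 nm) read 5 times over 30-s intervals, last minus first.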
Numbers without * were called inactive; ? = inconclusive; & = joins results of further samples. % is set by controls: 0 for no effect and ±100 for the full control effect; potency is the fitted concentration of half-maximal effect.

SMILES	HPGD inh
Cn1c(=O)c2c(nc(NCC3CCCO3)n2Cc2ccccc2)n(C)c1=O (stereo unspecified)	3%
CCCSCCCNC(=O)c1cc2c(s1)CS(=O)(=O)C2	-12%
O=C(Nc1ccccc1)c1ccc(NCCN2CCOCC2)c(S(=O)(=O)N2CCOCC2)c1	-2%
CCOC(=O)COc1ccc(C2NC(C(=O)O)CS2)cc1 (stereo unspecified)	1%
O=C(Oc1cc(-c2ccccc2)no1)c1ccc(F)cc1	-9%
COc1cc(N)cc(NC(=O)c2ccncc2)c1	-5%
O=C(CSc1nnc(Cc2cc(=O)[nH]c(=O)[nH]2)n1-c1ccccc1)NCC1CCCO1 (stereo unspecified)	-5%
CCn1nc(C(=O)Nc2cccc(C(F)(F)F)c2)c(Cl)c1Cl	-15%
NC(N)=NC(N)=Nc1ccc(SC(F)(F)F)cc1	4%
Cc1cccn2c(=O)c3cc(C(=O)NCCCn4ccnc4)n(C)c3nc12	?
Nc1nc(SCc2ccccn2)c2ncn(C3CCCC3)c2n1	-13%
O=C1c2sc3nc4n(c(=O)c3c2CCC1Br)CCCCC4 (stereo unspecified)	13µM*
Cc1cc(=O)[nH]c(-n2[nH]c(C)cc2=O)n1	-11%
COc1cc(NC(=S)NCc2ccco2)cc(OC)c1OC	16µM*
Cc1ccc(SCCNC(=O)CN(c2ccc3c(c2)OCO3)S(C)(=O)=O)cc1	-2%
CC(=O)c1ccc(Nc2nc(C)nc3c2oc2ccccc23)cc1	-22%
O=C(NCCN1CCOCC1)C1CCN(c2ncnc3c2sc2cccc(F)c23)CC1	?
c1ccc2oc(-c3ccc4nc[nH]c4c3)nc2c1	?
CCOC(=O)C1=C(C)NC(=O)N(C(C)=O)C1c1ccc(Cl)cc1 (stereo unspecified)	0%
CN1CCN(C(=O)C23CC4CC(CC(C4)C2)C3)CC1	-8%
COc1ccc(C2=NN(C(=O)c3cccnc3)C(c3ccccc3)C2)cc1 (stereo unspecified)	-14%
O=C(O)c1ccccc1[N+](=O)[O-]	-3%
O=C(Cc1c(F)cccc1Cl)Nc1cccnc1	-7%
O=C(CCCN1C(=O)c2ccccc2C1=O)Nc1ccc(S(=O)(=O)N2CCOCC2)cc1	-9%
COc1cccc(-c2nc(CS(=O)(=O)c3ccccc3)no2)c1	-16%
CC(Nc1cc(N2CCOCC2)ccc1[N+](=O)[O-])c1ccccc1 (stereo unspecified)	-28%
COCCn1c(SCC(=O)OCc2ccccc2)nc2c1c(=O)[nH]c(=O)n2C	-13%
Fc1ccc2c(c1)C(c1ccc(N3CCOCC3)cc1)=NNC(c1cccs1)=N2	-13%
O=C(O)c1ccc(Cl)cc1Cl	-11%
CC1(OC(=O)CCc2ccccc2)C(=O)C=C2C=C(c3ccc(C#N)cc3)N(C3CCCC3)C=C2C1=O (stereo unspecified)	-3%
COc1cc(/C=N/NC(=O)c2nc(-c3ccccc3)n(-c3ccccc3)n2)ccc1O	-20%
CCNc1nc(SC(C)C(=O)OC)nc(N2CCOCC2)n1 (stereo unspecified)	-10%
CS(=O)(=O)Nc1cccc(-c2nccc(NCc3ccccc3)n2)c1	-8%
O=C(COC(=O)Cc1c(F)cccc1Cl)NCCC1=CCCCC1	-12%
COc1ccc(CC(C)N2CCN(c3ccccc3OC)CC2)cc1OC (stereo unspecified)	-5%
CCOc1ccc(NC(=O)c2ccccc2OCC(=O)c2ccccc2)cc1	-28%
COc1cc(NC(=O)COC(=O)[C@@H]2CCCN2S(=O)(=O)c2ccc(Cl)cc2)cc(OC)c1OC	-13%
COc1ccc(CCC(=O)Nc2ccc(C)c(S(=O)(=O)N(C)C)c2)cc1OC	-6%
COc1ccc(OCC(=O)Nc2cc3oc4ccccc4c3cc2OC)cc1	?
Cc1csc(SCC(=O)Nc2cc(S(=O)(=O)N3CCCC3)ccc2Cl)n1	0%
CC1CCN(S(=O)(=O)N2CCC(C(=O)O)CC2)CC1	-3%
CCOc1ccc(C(CC(=O)O)NC(=O)c2sc3ccccc3c2Cl)cc1 (stereo unspecified)	-29%
COc1ccc(-c2csc(Nc3ccc(S(=O)(=O)Nc4cc(OC)nc(OC)n4)cc3)n2)cc1	?
O=C(CC1Sc2ncnn2C1=O)Nc1ccccc1 (stereo unspecified)	16µM*
O=C(Nc1ccc2ccccc2c1)c1onc2c1CCCC2	-15%
Cc1c(Cl)cccc1NC(=S)NNc1ncc(C(F)(F)F)cc1Cl	-11%
CCOC(=O)c1c(O)c2ccccc2n(-c2ccccc2)c1=O	-2%
O=C(c1nc2ccc([N+](=O)[O-])cc2[nH]c1=O)[C@@H](O)c1ccc2c(c1)OCO2	-3%
CC1=CC2=NC(=O)/C(=C\c3cccn3CCOc3ccccc3)C(=N)N2O1	-8%
c1ccc2c(c1)CNC1(CCCCC1)C2	-10%

15 successive records from above, quoted:
SMILES	HPGD inh
CS(=O)(=O)Nc1cccc(-c2nccc(NCc3ccccc3)n2)c1	-8%
O=C(COC(=O)Cc1c(F)cccc1Cl)NCCC1=CCCCC1	-12%
COc1ccc(CC(C)N2CCN(c3ccccc3OC)CC2)cc1OC (stereo unspecified)	-5%
CCOc1ccc(NC(=O)c2ccccc2OCC(=O)c2ccccc2)cc1	-28%
COc1cc(NC(=O)COC(=O)[C@@H]2CCCN2S(=O)(=O)c2ccc(Cl)cc2)cc(OC)c1OC	-13%
COc1ccc(CCC(=O)Nc2ccc(C)c(S(=O)(=O)N(C)C)c2)cc1OC	-6%
COc1ccc(OCC(=O)Nc2cc3oc4ccccc4c3cc2OC)cc1	?
Cc1csc(SCC(=O)Nc2cc(S(=O)(=O)N3CCCC3)ccc2Cl)n1	0%
CC1CCN(S(=O)(=O)N2CCC(C(=O)O)CC2)CC1	-3%
CCOc1ccc(C(CC(=O)O)NC(=O)c2sc3ccccc3c2Cl)cc1 (stereo unspecified)	-29%
COc1ccc(-c2csc(Nc3ccc(S(=O)(=O)Nc4cc(OC)nc(OC)n4)cc3)n2)cc1	?
O=C(CC1Sc2ncnn2C1=O)Nc1ccccc1 (stereo unspecified)	16µM*
O=C(Nc1ccc2ccccc2c1)c1onc2c1CCCC2	-15%
Cc1c(Cl)cccc1NC(=S)NNc1ncc(C(F)(F)F)cc1Cl	-11%
CCOC(=O)c1c(O)c2ccccc2n(-c2ccccc2)c1=O	-2%

Further results
SMILES	HPGD inh
CCOc1ccccc1C1C(C(=O)Nc2ccccc2OC)=C(C)Nc2nnnn21 (stereo unspecified)	-1%
C=CCn1c(COc2ccc(Cl)cc2)nnc1SCC(=O)N/N=C/c1cccc(O)c1	-7%
COC(=O)c1cc(C(=O)Nc2ccc(S(=O)(=O)NC(C)(C)C)cc2)cc([N+](=O)[O-])c1	18µM*
Cn1c(N)c(C(=O)COC(=O)Cc2ccsc2)c(=O)n(C)c1=O	-8%
CN1C(=O)NC(c2ccccc2)C2=C1CN(c1ccc3ccccc3c1)C2=O (stereo unspecified)	?
CCn1cc(C2=NOC(C(=O)Nc3ccc4c(c3)OCO4)C2)c(C)n1 (stereo unspecified)	-4%
COc1ccc(-c2nnc(SCC(=O)N3CCc4ccccc4C3)o2)cc1	?
O=C(COc1ccc(S(=O)(=O)NC2CCCCC2)cc1)NCc1ccccn1	-1%
CC(NC(=S)Nc1ccccc1Cl)C(c1cccs1)N1CCCC1 (stereo unspecified)	-7%
COc1ccc(NC(=O)c2ccccc2Cl)cc1NC(=O)CN1CCOCC1	2%
N#Cc1ccccc1Cn1c(=O)n(Cc2ccc(C(=O)NCc3ccco3)cc2)c(=O)c2sccc21	-7%
CC(=O)Nc1ccc(NC(=O)CN(c2cccc(C)c2)S(C)(=O)=O)cc1	-3%
CCC(=O)N1CCN=C1SCc1ccc(F)cc1	-15%
CCOC(=O)N1CCN(S(=O)(=O)c2ccc(C(=O)Nc3nc4ccc(F)cc4s3)cc2)CC1	?
C=Cc1ccccc1Cl	-7%
CCOC(=O)N1CCN(C(=O)CCCOc2ccccc2)CC1	-2%
OCc1nc2ccccc2n1CC(O)Cn1ccc2ccccc21 (stereo unspecified)	-18%
CC(C)NC(=O)c1ccccc1NC(=O)/C=C/c1ccc([N+](=O)[O-])cc1	-11%
COc1ccc(C(=O)Nc2ccc3c(c2)nc(CCNC(C)=O)n3C)cc1	-5%
COc1ccc(OCC(O)CNCc2ccco2)cc1 (stereo unspecified)	1%
O=C(c1cccc(F)c1)N1CCN(C2CCCCC2)CC1	1%
O=c1c(-c2ccc(O)cc2)coc2cc(OC3OC(CO)C(O)C(O)C3O)cc(O)c12 (stereo unspecified)	?
COC(=O)NCc1cc2cc(Cl)ccc2[nH]1	-20%
Cc1cccc(-n2nc3c(c2NC(=O)c2ccc(S(=O)(=O)N4CCOCC4)cc2)CSC3)c1C	-11%
Cc1ccc(S(=O)(=O)n2nc(OC(=O)c3cccs3)cc2N)cc1	-12%
O=C(N/N=C/c1ccccc1Cl)c1n[nH]c2c1CCCC2	-16%
COc1ccc(C=O)cc1COc1c(F)c(F)cc(F)c1F	-14%
CCCC(=O)Nc1nc2ccc(C(=O)OCC)cc2s1	-23%
CC1(C)NC(=O)N(CN2C(=O)NC(C)(C)C2=O)C1=O	-3%
COc1ccc(CC(=O)Nc2ccc(C(=O)NC(C)(C)C)cc2)cc1	-11%
CC(C)C(=O)Nc1ccc2c(c1)oc1ccccc12	-17%
C=CCn1c(SCC#N)nc2ccccc2c1=O	-19%
COc1ccc(CN(C)CC(=O)Nc2ccc(N3CCOCC3)cc2)cc1OC	-15%
Cc1oc2cc3oc(=O)c4c(c3cc2c1C)CCC4	-16%
O=C(O)Cc1ccc(C(=O)c2ccc(F)cc2)s1	-29%
N#CCCCCN1c2cccc3cccc(c23)S1(=O)=O	-28%
COc1cccc(NC(=O)[C@@H]2CCCN2C(=O)C2CCN(S(=O)(=O)c3ccc(C)cc3)CC2)c1	-8%
COc1ccc(-c2cc(-c3ccc(OC)cc3)c(C#N)c(SC)n2)cc1	?
CSC1(SC2=NCCN2)SC2(NCCN2)S1	-8%
COc1ccc(-c2oc(NC(C)=O)c(C#N)c2-c2ccc(OC)cc2)cc1	-16%
CCOC(=O)N1CCN(C(=O)COc2ccc(Br)cc2)CC1	-5%
CCCCC12CN3CC(C)(CN(C1)C31C(=O)N(C)c3ccc(C)cc31)C2=O (stereo unspecified)	-16%
CONc1nc(NC(C)(C)C)nc(OCC#N)n1	-15%
CC(NC(=O)c1ccc(Cn2cc([N+](=O)[O-])cn2)cc1)c1ccccc1 (stereo unspecified)	-17%
CCOc1cccc(-c2nn(-c3ccccc3)cc2/C=C(/C#N)C(=O)NCCCn2ccnc2)c1	-20%
C[C@@H](C(=O)Nc1ccc2ccccc2c1)[C@@H]1C[C@@]1(C)[C@@H](NC(=O)c1ccncc1Cl)c1ccccc1	-12%
CC(=O)Nc1ccc(S(=O)(=O)N2CCN(CCCOc3ccccc3Cl)CC2)cc1	-5%
COc1ccc(/C=N/NC(N)=S)cc1OC(=O)c1ccccc1	25µM*
COc1ccc(NS(=O)(=O)c2cc(NC(=O)c3cccs3)ccc2N2CCCC2)cc1	-11%
Nc1nc(SCC(=O)NCCN2CCOCC2)nc2sc3c(c12)CCC3	-10%
Remaining list, next part:
SMILES	HPGD inh
COc1cccc(N2CCCn3c2nc2c3c(=O)n(CCN3CCOCC3)c(=O)n2C)c1	-5%
CCOC(=O)c1ccccc1C(=O)N1CCOCCOCCOCC1	-3%
Cc1cc(/C=C(\C#N)C(N)=O)c(C)n1-c1ccc(N2CCOCC2)c([N+](=O)[O-])c1	-17%
Cc1ccc(-c2cn(-c3ccccc3)c3[n+]2CCCS3)cc1	-8%&0%
CCOC(=O)C1CCN(c2ncnc3c2cnn3-c2ccc(OC)cc2)CC1	-13%
CCC(=O)NC1=C(NC(C)c2ccccc2)C(=O)c2ccccc2C1=O (stereo unspecified)	-24%
CCN1CCN(Cc2cc(=O)oc3ccc(Cl)cc23)CC1	-6%
NCCCC[C@@H]1NC(=O)[C@H](CCC(=O)O)NC(=O)c2cc([N+](=O)[O-])cc(I)c2OCC[C@@H](C(N)=O)NC1=O	-5%
CCCCOc1ccc(C(=O)N/C(=C/C=C/c2ccccc2)C(=O)NCCCO)cc1	?
CCCCSC1=N/C(=C/c2ccsc2)C(=O)N1c1ccccc1	-25%
COc1ccc(CCNC(=O)Cn2c(=O)oc3ccccc32)cc1OC	1%
CCOC(=O)C(NC=O)(NC(C)(C)C)C(=O)OCC	-2%
Fc1ccccc1-c1nc(NCCCN2CCOCC2)c2ccccc2n1	-8%
COc1ccc2c(c1)C1=NN(/C(C)=C/C(C)=O)C(c3cccc(F)c3)C1CC2 (stereo unspecified)	-9%
CCCOCC(C)O (stereo unspecified)	0%
Cc1cccc(N2CCN(C(=O)c3ccc(NC(=O)C4CCCO4)cc3)CC2C)c1 (stereo unspecified)	-11%
OCCN1CCN(CCCc2c3c(cc4c2CCC4)CCC3)CC1	-14%
COC(=O)[C@@H]1C[C@@]2(O)[C@@H](O)[C@@H](O)[C@@H](O)C[C@H]2N1CC1CC1	-1%
O=C(C1COc2ccccc2O1)N1CCc2ccccc21 (stereo unspecified)	?
Cn1c(Cn2c(=O)sc3ccccc32)nnc1SCC(=O)Nc1ccc(F)cc1	-11%
CCn1c(Cn2nnc(-c3ccccc3)n2)nnc1SCC(=O)Nc1cccc(C(C)=O)c1	-24%
Cc1ccc(-c2cn3nc(C)c(C)nc3n2)cc1	?
COc1cccc(C2CC(c3c(Cl)cccc3Cl)n3nc(N)nc3N2)c1 (stereo unspecified)	-9%
CC(C)CCN1C(=O)c2ccc(C(=O)OCn3nnc4ccccc4c3=O)cc2C1=O	-24%
CCn1c(=O)c(C(=O)NNS(=O)(=O)c2ccc(C)cc2)c(O)c2ccccc21	-9%
CCc1cc(=O)oc2cc(OCC(N)=O)c(Cl)cc12	?
CCc1ccc(C(=O)CCC2CCCCC2=O)cc1 (stereo unspecified)	16µM*
CCc1ccccc1NC(=O)CSc1nc2c(c(-c3ccco3)c1C#N)CCCC2	-12%

A portion of the library; the hit share may differ from the screen's.
